# Bst PK mod = pyruvate kinase (B. stearothermophilus) modulation | partly purified Bacillus stearothermophilus pyruvate kinase, luminescence ATP production; ribose 5-phosphate activator present at AC10 | Potency, µM | 51,000 tested, 1.2% active | AID 361; in the data active means potency below about 11 µM; inconclusive means mostly about 12 µM to 25 µM; inactive means weaker than that;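 the screen sought inhibitors and activators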;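 further: potency means the concentration at half of the fitted maximal effect; scaled between full activation by ribose 5 phosphate and full inhibition by luteolin; about four in five hits inhibit and the cells do not say which; series up to 57 µM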
# TsaE inh = inhibitors of E. coli YjeE (TsaE); P0AF67; purified YjeE, fluorescence polarisation of a bound ADP probe; Potency, µM; 71,000 tested, 0.05% active; active = well fitted falling curve; inconclusive = weaker or top-dose-only fall, or a rising curve; inactive = flat or poorly fitted curve;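 further: top concentration of the series not given in the record; excess ADP was the control for the full effect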
#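 Fluorescence polarization of a BODIPY Texas Red–ADP probe (2 uM) bound to purified YjeE (10 uM) was read after 15 min room-temperature incubation with compounds. Loss of polarization marks inhibitors; ADP serves as titrated control.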
# Numbers without * were called inactive; i = inactive; ? = inconclusive; · = not tested or not shown. These rows are one share of the data; count on the stated rates, not on these rows.
Bst PK mod	TsaE inh	structure
>57	i	CCOC(=O)c1c(NC(=O)OC)sc2c1CCC2
>57	i	Cc1ccc(N2CCCCn3c2nc2c3c(=O)[nH]c(=O)n2C)cc1
>57	i	COc1ccccc1-c1cc(C(F)(F)F)nc(N2CCN(c3ccccc3)CC2)n1
·	i	C[C@@H]1C[C@@H]2[C@H]3CCC4=CC(=O)C=C[C@]4(C)[C@]3(F)[C@@H](O)C[C@@]2(C)[C@@]1(O)C(=O)CO
·	i	CCCn1c(-c2ccc(F)cc2)nc2c(NC3CCN(Cc4ccccc4)C3)nc(C)nc21 (centres undefined)
·	i	O=C(NCCN1CCCCC1)c1ccc2c(c1)OCCO2
·	i	CCc1nnc(NC(=O)Nc2ccccc2OC)s1
·	i	COc1cc(NC(=O)c2onc(C)c2Cl)c(OC)cc1Cl
·	i	CCCCCC/C(C=O)=C\c1ccccc1
>57	i	CCN1C(=O)N(CC)C2C1N(C(C)=O)C(=O)N2C(C)=O (centres undefined)

# Reformatted: entries from further up.
# Screens in order – Bst PK mod | TsaE inh
> CCCCCC/C(C=O)=C\c1ccccc1
    · | i
> CCCn1c(-c2ccc(F)cc2)nc2c(NC3CCN(Cc4ccccc4)C3)nc(C)nc21 (centres undefined)
    · | i
> CCN1C(=O)N(CC)C2C1N(C(C)=O)C(=O)N2C(C)=O (centres undefined)
    >57 | i

# The results go on:
Bst PK mod	TsaE inh	structure
>57	i	Cc1cc(C(F)(F)F)nn1CC(=O)NCc1ccccc1
>57	i	O=C(NCc1ccco1)c1cc2nc(C3CC3)cc(C(F)(F)F)n2n1
>57	i	COc1cccc(-n2c(COc3ccccc3C)nnc2SCC(=O)O)c1
>57	i	O=C(Nc1nc(-c2ccco2)c(-c2ccco2)s1)C1CC(=O)N(c2ccc3c(c2)OCCO3)C1 (centres undefined)
·	i	CCn1c(N2CCC(C)CC2)nc2c1c(=O)n(C)c(=O)n2C
·	i	CCCC(C)C(=O)Nc1cccc(NC(C)=O)c1 (centres undefined)
>57	i	CCOC(=O)c1c(C)[nH]c(C(=O)CSc2nnnn2-c2ccc(C)cc2)c1C
>57	i	CCOC(=O)c1cccc(N2C(=O)C3C(C(=O)NC4CC4)C4(C)C=CC3(O4)C2C(=O)NC(C)(C)C)c1 (centres undefined)
·	i	Cc1cccc(C2N(c3ccc(F)cc3)C(=O)C3CCCN32)c1 (centres undefined)
>57	i	CCc1ccc(Nc2cc(=O)n(C3CCCCC3)c(=O)[nH]2)cc1
>57	i	COc1ccc(C(=O)N(Cc2ccco2)Cc2cccs2)c(O)c1
>57	i	CC(=O)NC(Cc1c[nH]c2ccccc12)C(=O)N1CCc2ccccc2C1 (centres undefined)
·	i	O=C(O)C(=O)/C=C(\O)c1ccc(Br)cc1
>57	i	Cc1ccc(NC(=O)CC2SC3=NCCCN3C2=O)c(C)c1 (centres undefined)
>57	i	COc1cccc(C2/C(=C(\O)c3ccc4c(c3)OCO4)C(=O)C(=O)N2CCN(C)C)c1OC (centres undefined)
>57	i	C/C=C/Cn1c(SCc2ccc(Cl)cc2)nc2c1c(=O)[nH]c(=O)n2C
·	i	O=C(c1cccc(C(=O)N2CCN(c3ccccc3)CC2)c1)N1CCN(c2ccccc2)CC1
·	i	Cn1cccc1C(=O)N1CCC2(CCCN(C(=O)Nc3cccc(F)c3)C2)CC1
>57	i	C1=CC2CC1CC2CN1CCN(c2ccccc2)CC1 (centres undefined)
>57	i	CCOc1ccc(N2CC(C(=O)Nc3ccc(S(=O)(=O)N4CCOCC4)cc3)CC2=O)cc1 (centres undefined)
>57	i	CCOC(=O)c1cc(-c2ccco2)nc2c1c(C)nn2CCC#N
·	i	Cc1cc2ncn(/N=C/c3cccnc3)c2cc1C
>57	i	COc1ccc(C(=O)Nc2c3c(nn2-c2cccc(Cl)c2)CS(=O)C3)cc1 (centres undefined)
·	i	O=P(O)(CCP(=O)(O)c1ccccc1)c1ccccc1
i	i	COc1ccc(-c2cc3nc4c(c(N5CCC6(CC5)OCCO6)n3n2)CCCC4)cc1
·	i	COc1cc([C@@H]2c3cc4c(cc3[C@@H](O[C@@H]3O[C@H]5CO[C@@H](C)O[C@@H]5[C@@H](O)[C@H]3O)[C@@H]3COC(=O)[C@@H]23)OCO4)cc(OC)c1O
>26	·	Cc1ccc(C2/C(=C(\O)c3cnn(-c4ccccc4)c3C)C(=O)C(=O)N2CCN(C)C)o1 (centres undefined)
>57	i	CC(C)c1cc(CN2CCN(CCC#N)CC2)cc(C(C)C)c1O
>57	i	CCOC(=O)C1CCN(C(=O)COC(=O)c2ccc(Br)o2)CC1
>57	i	C=CCn1c(C)cc(C(=O)CSc2nnc(NCc3ccccc3)s2)c1C
>57	i	COC(=O)c1cccc(CSc2nnc(C)s2)c1
·	i	CCCCCCN(C(=O)CCCCCN1C(=O)NC(c2ccc(-c3ccccc3)cc2)C(C(=O)OCc2ccccc2)=C1C)C(C(=O)NCCCC)c1ccccc1 (centres undefined)
·	i	Cc1c(C(=O)N2CCOCC2)sc2nc(-c3ccccc3)cn12
>57	i	CCOC(=O)c1c(C)noc1CP(=O)(c1ccccc1)c1ccccc1
·	i	CC(C)OC(=O)c1cc2c(OC[C@@H](O)CNC(C)(C)C)cccc2[nH]1
>11	i	CC(C)C[C@H](NC(=O)[C@@H]1O[C@H]1C(=O)O)C(=O)NCCCCN=C(N)N
·	i	c1ccc(N(c2ccccc2)c2nc(N3CCOCC3)nc(N3CCOCC3)n2)cc1
>57	i	CCS(=O)(=O)N1CCC(C(=O)NCc2cccc(OC)c2)CC1
>57	i	O=C(CC(O)(c1ccccc1)C(F)(F)C(F)F)c1cccs1 (centres undefined)
·	i	CCn1c(SCC(=O)Nc2cccc(F)c2)nc2c(c1=O)SC(C)C2 (centres undefined)
>57	i	COc1ccc(OC)c(NC(=O)C23CCC(C)(C(=O)C2)C3(C)C)c1 (centres undefined)
>26	·	COc1ccc(/C(O)=C2\C(=O)C(=O)N(CCN(C)C)C2c2cccc(OC)c2OC)cc1 (centres undefined)
>57	i	CCOC(=O)N1CCN(C(=O)C(NC(=O)c2ccc(CC)cc2)C(C)C)CC1 (centres undefined)
>57	i	CC1(C)CC(=O)C2=C(C1)N(Cc1ccco1)C(=O)C2(NC(=O)C1CCCCC1)C(F)(F)F (centres undefined)
>57	i	Cc1ccc2[nH]c3c(=O)n(CCN4CCNCC4)cnc3c2c1
>57	i	CCNc1nc(OC)nc(Oc2ccc(=O)n(-c3ccccc3)n2)n1
>57	i	O=C(NCCCN1CCN(c2ccccc2F)CC1)C1CCC(=O)N1C1CCCCC1 (centres undefined)
>57	i	Cc1cc(NC(=O)Cn2cnc3c2c(=O)n(C)c(=O)n3C)n(-c2ccccc2)n1
·	i	C/C(=C\c1ccc(Cl)cc1)C(C)(C)C(=O)O
>57	i	COc1cccc2cc(C(=O)C3=C(O)C(=O)N(Cc4ccco4)C3c3cccnc3)oc12 (centres undefined)

# (further entries)
Bst PK mod	TsaE inh	structure
>57	i	COC(=O)c1cc2sccc2n1CC(=O)Nc1cc(OC)cc(OC)c1
i	i	CCCCNC(=O)c1cc2c(=O)n3cccc(C)c3nc2n(Cc2ccccc2)c1=N
>57	i	CCOC(=O)NCCc1c(C)nc2c(c(C)nn2C(C)(C)C)c1C
>57	i	COc1ccccc1N1CCN(C2=CC(=O)CCC2)CC1
>57	i	CCOc1ccccc1NS(=O)(=O)c1ccc(OC)c(OC)c1
·	i	COc1ccc([C@@H](Nc2ccccn2)c2cc(C(C)(C)C)cc(C(C)(C)C)c2O)cc1
>57	i	CCOCCCNC(=O)C1CCC(=O)N1CCc1ccccc1 (centres undefined)
·	i	CC(C)(C)NC(=O)CSc1nccn1Cc1ccccc1
·	i	CN(C)S(=O)(=O)c1ccc(NC(=O)c2ccccn2)cc1
>57	i	Cc1cc(C(=O)COC(=O)Cn2c(C(F)(F)F)nc3ccccc32)c(C)n1Cc1ccco1

# Reprinted at random: 3 records from the list, in no set order.
Bst PK mod	TsaE inh	structure
>57	i	COC(=O)c1cccc(CSc2nnc(C)s2)c1
·	i	O=C(NCCN1CCCCC1)c1ccc2c(c1)OCCO2
·	i	Cc1c(C(=O)N2CCOCC2)sc2nc(-c3ccccc3)cn12

# Next entries follow:
Bst PK mod	TsaE inh	structure
·	i	Cc1oc(/N=C/c2cccc3ccccc23)c(C#N)c1C
>57	i	CCOC(=O)c1[nH]c2ccc(F)cc2c1NC(=O)c1cc(OC)c(OC)c(OC)c1
>57	i	CCOC(=O)CSC1=C(C#N)C(c2ccc(C)cc2)C2=C(CCCC2=O)N1 (centres undefined)
i	i	c1coc(-c2nn3c(-c4ccco4)nnc3s2)c1
>11	i	N#C/C(=C\c1ccc[nH]1)Sc1nc2ccccc2s1
>57	i	Cc1ccc(C)c(-c2nc3ccc(N)cc3[nH]2)c1
>57	i	O=C(NCCC(=O)N1CCN(c2ncccn2)CC1)c1ccccc1
·	i	COc1cc(NC(=O)c2cc(CC(C)C)on2)c(OC)cc1Cl
>57	i	CCC(C)Oc1cccc(OCCCCN2C(=O)NC(C)(C)C2=O)c1 (centres undefined)
?	i	Nc1ccc2oc(=O)c3ccccc3c2c1
>57	i	O=C(CSc1nnnn1C1CCCC1)NCc1ccc2c(c1)OCO2
>57	i	CC(C)c1nc(C#N)c(NCCCn2ccnc2)o1
>57	i	COc1ccccc1Oc1ccc2c(c1)C(=O)N(c1ccc(O)cc1)C2=O
>57	i	CCSc1nc2cc(C(=O)OC)ccc2c(=O)n1CC
>57	i	COCC(=O)Nc1sc2c(c1C(=O)OC)C(C(=O)OC)CC2 (centres undefined)
>57	i	CCOc1ccc2nc(NC(=O)Cn3cnc4c3c(=O)n(C)c(=O)n4C)sc2c1
>57	i	O=C(OCC(=O)N1CCCCCC1)c1n[nH]c(=O)c2ccccc12
·	i	COCCNC(=O)Cn1nc(C(F)(F)F)cc1C
·	i	COc1ccccc1CNc1ncnc2ccc(-c3cccc(C#N)c3)cc12
>57	i	CCn1c(SCC(=O)c2ccc(CNC(C)=O)o2)nnc1-c1cccs1
·	i	Cc1cccc(N(CC(=O)N2CCCC2)S(=O)(=O)c2ccccc2)c1C
>57	i	Cc1nnc(SCC(=O)Nc2ccc(Cl)cn2)n1Cc1ccccc1
>57	i	COc1cc(C2C3C(=O)N(c4ccccc4)C(=O)C3ON2c2ccccc2)cc(OC)c1OC (centres undefined)
>57	i	CC(=O)Nc1c(C#N)c(C(C)(C)C)cn1C
·	i	Cc1nc2cnc(N3CCNCC3)nc2n(-c2ccccc2)c1=O
>57	i	Cc1cc(NC(=O)c2noc3c2CCCCC3)nn1Cc1ccc(Cl)cc1
>57	i	CC(NC(=O)c1ccccc1)c1nc2ccccc2n1Cc1ccc(C#N)cc1 (centres undefined)
·	i	CCOc1ccc(Oc2nc(NCC(C)C)nc(OC)n2)nn1
>57	i	COc1ccc(OC)c(NC(=O)C(CC(=O)O)NCc2ccco2)c1 (centres undefined)
>57	i	CCC(C)(C(=O)NC1CCCCC1)N(CC1CCCO1)C(=O)c1ccccn1 (centres undefined)
·	100µM*	C=CC(C)(C)c1[nH]c2ccccc2c1C1=C(O)C(=O)C(c2c[nH]c3c(CC=C(C)C)cccc23)=C(O)C1=O
·	i	COc1ccc(NC(=O)N2CCC3(CC2)CCN(C(=O)c2ccco2)CC3)cc1
>11	i	CCOC(=O)CNC(=O)CSc1nnnn1-c1ccc(C)c(C)c1
>57	i	Cc1ccc2cc(CN(Cc3ccc4c(c3)OCO4)Cc3nnnn3Cc3ccco3)c(=O)[nH]c2c1
·	i	CC(C)C[C@@H](N)C(=O)Nc1ccc2ccccc2c1
>57	i	Cn1nnnc1SCC(=O)Nc1ccc(Br)cc1Cl
·	i	CN(C)C(=S)c1ccc2ccccc2n1
>57	i	CCOC(=O)CNC(=O)Nc1cc(C(C)(C)C)nn1-c1ccccc1
·	i	Cc1ccc(CN2CCN(Cc3ccc(C)o3)[C@@H](C)C2)o1
·	i	O=C(O)C(Sc1ccc(Cl)cc1)Sc1ccc(Cl)cc1

# Of the compounds above, six have two or more sulfur atoms.
Bst PK mod	TsaE inh	structure
>57	i	C=CCn1c(C)cc(C(=O)CSc2nnc(NCc3ccccc3)s2)c1C
>57	i	COC(=O)c1cccc(CSc2nnc(C)s2)c1
·	i	CCn1c(SCC(=O)Nc2cccc(F)c2)nc2c(c1=O)SC(C)C2 (centres undefined)
>11	i	N#C/C(=C\c1ccc[nH]1)Sc1nc2ccccc2s1
>57	i	CCn1c(SCC(=O)c2ccc(CNC(C)=O)o2)nnc1-c1cccs1
·	i	O=C(O)C(Sc1ccc(Cl)cc1)Sc1ccc(Cl)cc1

# New compounds follow:
Bst PK mod	TsaE inh	structure
>57	i	COCc1cc(C)nc(SCC(=O)N2CCC(C)CC2)c1C#N
>57	i	O=C(CSc1nnc(-c2cccnc2)o1)Oc1ccccc1
·	i	COc1ccccc1NC(=O)CSc1nnc(-c2ccccn2)n1Cc1ccco1
>57	i	CC(C(=O)Nc1ccccn1)N1C(=O)C2C3C=CC(C3)C2C1=O (centres undefined)
>57	i	CC(=O)NC1C(=O)N=C(SCC(=O)NC(C)c2ccccc2)NC1=O (centres undefined)
>57	i	CC(C)CN(CC(C)C)C(=O)CS(=O)(=O)Cc1ccccc1
>57	i	COc1ccc(C2C(C(=O)N3CCOCC3)=C(C)NC3=C2C(=O)CC(C)(C)C3)cc1O (centres undefined)
